# ClpP mod = qHTS Assay for Activators of ClpP; 1.9% of 340,000 active; AID 651965, 2013; Potency, µM (highest dose often 57.5 µM), for the others: at the highest dose activity change, negative = active; purified B. subtilis ClpP, FRET peptide cleavage, 20 min; ATP-dependent Clp protease proteolytic subunit (Bacillus subtilis (strain 168)), P80244; active = well fitted falling curve with a large enough effect; inconclusive = small, poorly fitted or top-dose-only effect; inactive = no such curve, though single readings can be large or run the other way; further: potency means the concentration at half of the fitted maximal effect; the source files actives as falling curves though it sought activators and does not explain the sign; nearly all actives have a fitted effect of over 65% in size; many hits overshoot -100%
# Target sequence (P80244 whole entry, looked up): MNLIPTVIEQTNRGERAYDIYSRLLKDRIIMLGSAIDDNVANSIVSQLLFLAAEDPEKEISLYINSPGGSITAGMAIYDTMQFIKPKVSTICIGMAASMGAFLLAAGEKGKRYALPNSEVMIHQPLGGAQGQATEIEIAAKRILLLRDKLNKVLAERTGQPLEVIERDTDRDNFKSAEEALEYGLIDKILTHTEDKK
#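 FRET quenching reversal measured ClpP activation: 10 microg/mL B. subtilis ClpP at pH 8 with the FRET-FV decapeptide, read at 430 nm after 320 nm excitation. The 20-min minus 0-min signal was scaled between DMSO/no-enzyme wells and ADEP (5.8 microM final).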
# gsp antag = antagonizes gsp, the McCune-Albright syndrome mutation | 0.4% of 340,000 active | AID 624288 | Potency, µM (top dose mostly 76.9 µM), for the others: at the highest dose activity change, negative = inhibition, actives largely listed as inhibitors | gsp-mutant cells, cAMP HTRF, 30 min; control for the full effect not named in the record; active = falling curve of any shape with a large fitted effect; inconclusive = falling curve, mostly with a smaller effect; inactive = flat or rising curve; cell line not stated here;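 further: intracellular cAMP measured with PDE inhibitor Ro 20-1724 present during compound exposure; potency means the concentration at half of the fitted maximal effect; on the % scale 0 is the no-effect control and ±100 the full control effect; nearly all actives have a fitted effect of over 65% in size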
#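 G418-selected cells were plated in DMEM/10% FBS for 16-24 h at 37C, then treated with compounds plus the PDE inhibitor […] (300 uM solution added) for 30 min at 37C. Intracellular cAMP was measured by HTRF after 30 min lysis at room temperature.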
# gsp ag = activates gsp, the McCune-Albright syndrome mutation; gsp mutant cells, cAMP HTRF, 30 min; control for the full effect not named in the record; Potency, µM (highest dose often 76.9 µM), for inactives: at the top dose activation (cAMP increase), hits mostly activators; 0.13% of 340,000 active; active = well fitted activation curve with a large enough effect; inconclusive = small, poorly fitted or top-dose-only effect, or another doubt; inactive = no such curve, though single readings can be large or run the other way; cell line not stated here;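 further: phosphodiesterase inhibitor Ro 20-1724 added with compounds to block cAMP breakdown; potency means the concentration at half of the fitted maximal effect; nearly all actives have a fitted effect of over 60% in size; about a fifth of the inactives were tested at one dose only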
#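 Cells in DMEM/10% FBS with G418 were pretreated with compounds in DMSO plus […] (300 uM stock) for 30 min at 37C. cAMP was measured by HTRF (cAMP-d2 plus anti-cAMP antibody-K) after 30 min at room temperature.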
# TRPV1 potentiator = human TRPV1 potentiation; Q8NER1; TRPV1-expressing cells, Fluo-8 calcium influx, capsaicin EC20 potentiation; host cell line not named in the record; control for the full effect not named in the record; potentiation, % at 8.33 µM; 0.02% of 320,000 active; AID 540277; active means potentiation above 80%; inconclusive means 30% to 80%; inactive means below 30%; further: 0% is about no effect
# Target sequence (Q8NER1 whole entry, looked up): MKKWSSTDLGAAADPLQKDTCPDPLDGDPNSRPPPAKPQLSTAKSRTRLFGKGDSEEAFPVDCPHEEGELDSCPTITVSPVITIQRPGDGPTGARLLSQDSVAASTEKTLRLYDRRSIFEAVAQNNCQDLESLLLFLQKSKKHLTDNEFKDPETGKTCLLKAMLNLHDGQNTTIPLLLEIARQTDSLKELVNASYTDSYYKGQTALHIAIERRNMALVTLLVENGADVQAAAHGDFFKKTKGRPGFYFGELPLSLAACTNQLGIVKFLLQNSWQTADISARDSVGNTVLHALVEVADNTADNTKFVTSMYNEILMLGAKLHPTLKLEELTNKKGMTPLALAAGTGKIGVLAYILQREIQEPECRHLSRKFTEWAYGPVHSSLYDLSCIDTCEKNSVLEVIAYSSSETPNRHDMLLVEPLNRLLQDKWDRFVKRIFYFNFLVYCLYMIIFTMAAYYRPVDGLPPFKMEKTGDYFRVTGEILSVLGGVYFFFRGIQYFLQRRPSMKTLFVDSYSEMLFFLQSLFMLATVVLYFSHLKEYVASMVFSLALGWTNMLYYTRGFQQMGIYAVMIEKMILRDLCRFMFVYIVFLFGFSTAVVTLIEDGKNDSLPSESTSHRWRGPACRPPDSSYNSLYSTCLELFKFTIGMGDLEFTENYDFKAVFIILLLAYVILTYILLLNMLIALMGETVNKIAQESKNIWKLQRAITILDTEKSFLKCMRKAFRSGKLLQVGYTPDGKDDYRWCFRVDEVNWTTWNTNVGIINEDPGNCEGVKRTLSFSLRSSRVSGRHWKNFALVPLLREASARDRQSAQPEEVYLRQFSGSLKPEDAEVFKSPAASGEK
#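 TRPV1-expressing cells were cultured overnight at 35.5C and loaded with Fluo-8 calcium dye for 40 to 90 min at room temperature. After a 10 s baseline, compound was added and calcium influx was read kinetically for 3 min (ex 480/em 520 nm).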
# CtBP-E1A inh = CtBP/E1A binding inhibition; AlphaScreen GST-E1A/His-CtBP binding, 1536-well; active compounds read low; control for the full effect not named in the record; 0.49% of 340,000 active; activity change, % (no concentration beside the values); in the data active means activity change below about -65%; inconclusive means about -30% to -65%; inactive means above about -30%; further: on the % scale 0 is the no-effect control and ±100 the full control effect
#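 Steps: dispense buffer (Tris pH 8.0, NaCl 300 mM, TCEP 1 mM, BSA, Tween 20); add 5X protein mix (GST-E1A, His-CtBP, 125 nM each); pin 23 nL compound; 2 h at 37 °C, dark; add 5X beads (50 ug/mL); 1 h; read.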
# Menin-MLL FL inh = displaces fluorescein MLL peptide from human menin; Fluorescence polarization, fluorescein-MLL peptide displacement from menin; AID 1766; 290,000 tested, under 10 active; FP activity change, % at 61.4 µM; inconclusive = falling polarisation curve, or a change in total fluorescence; inactive = total fluorescence flat and polarisation flat or rising; no compound was filed as active; the % refers to the polarisation; negative = inhibition;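 further: % of control where 0% means no effect; inhibitors lower the polarisation; unlabelled MLL peptide was the positive control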
# Sfp inh = blocks B. subtilis Sfp PPTase activity; Biochemical Sfp PPTase activity, qHTS; 3.5% of 310,000 active; Potency, µM, inactives show max response, negative = inhibition, usual class: inhibitors; AID 1490; active means well fitted inhibition curve with a large enough effect; inconclusive means small, poorly fitted or top-dose-only effect, or another doubt; inactive means no such curve, though single readings can be large or run the other way;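 further: the enzyme is Sfp with the accession as filed and its product quenches rhodamine fluorescence; potency means the concentration at half of the fitted maximal effect; 0% = enzyme reaction without inhibitor and -100% = no enzyme wells; top concentration of the series not given in the record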
#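 After 15 min at room temperature with compound, 15 nM Sfp received 5 uM rhodamine-CoA plus 12.5 uM BHQ-2-ybbR (50 mM Hepes pH 7.6, 10 mM MgCl2). Rate came from the fluorescence difference over 30 min, ex 525/em 598 nm.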
# An asterisk follows results filed as active; ? = inconclusive; . = not tested or not shown; & = joins results of further samples; [ ] = dose if it differs, or a comment. Random draw from the library. Share with any hit: about 5.3%.
Molecule	gsp ag	CtBP-E1A inh	gsp antag	Menin-MLL FL inh	ClpP mod	Sfp inh	TRPV1 potentiator
CC(C)CNC(=O)C1CC(=O)OC12CCCCC2 (configuration not stated)	0%	-2	6%	-6.5	4.1%	10%	-18
Nc1ccc(Sc2ccccc2Cl)nc1	13%[15.4 µM]	10	-12%	.	0.7%	.	.
Cc1ccc(-c2cc(C(F)F)n3ncc(C(=O)NCc4ccco4)c3n2)cc1	-9%	3	0%	4.8	-18%	4%	6
COc1ccccc1CNC(=O)C1CC2Cn3c(nc4cc5ccccc5cc43)C2N1C (configuration not stated)	-2%	2	-7%	.	-24%	.	7
Cc1cc(/C=N/n2cnnc2)c(C)n1-c1ccc2c(c1)OCO2	13%	-1	8%	0.5	-1.0%	-5%	-5
CCOC(=O)C1=C(C)N=C2SC(C(=O)OC)=CC(=O)N2C1c1cc(OC)c(OC)c(OC)c1 (configuration not stated)	-5%[15.4 µM]	6	10%	5.6	-0.3%	-2%	10
COc1ccc(CCN2C(=O)CC(N3CCN(S(=O)(=O)c4ccccc4)CC3)C2=O)cc1 (configuration not stated)	-38%[inhibitor]	25	-3%	1.5	1.2%	14%	4
Cc1ccc(-n2nnnc2SCC(=O)N2CCCCC2)cc1	-19%	6	2%	4.3	1.8%	14%	-27
COc1ccc(S(=O)(=O)N2CCN(C(=O)c3oc4ccccc4c3C)CC2)cc1	-31%[inhibitor]	-4	-15%	.	-2.7%	-1%	-5
O=C(CCN1CCOCC1)Nc1ccccc1	0%	6	9%	4.9	1.0%	10%	3
CC#CCN1C=C(C(=O)OCC)C(C)N(Cc2ccc(Br)cc2)S1(=O)=O (configuration not stated)	.	0	-5%	.	-2.1%	.	.
CCOc1ccccc1NC(=O)NC1(C(=O)NCc2cccnc2)CCCCC1	2%	4	9%	-2.1	.	12%	6
CC(=O)c1cccn1S(=O)(=O)c1ccccc1	?	7	2%	0.0	-0.7%	11%	1
NS(=O)(=O)c1ccc(NC(=O)COC(=O)c2ccc([N+](=O)[O-])s2)cc1	-2%	-11	-9%	1.1	0.7%	13%	1
Cc1ncc(/C=C2\C(=O)Nc3ccccc32)[nH]1	3%[15.4 µM]	7	-3%	0.8	-7.2%	10%	.
Cc1ccccc1Cn1nnc(-c2ccc(F)cc2)n1	-55%[inhibitor]	28	3%	-6.2	-2.8%	0%	19
Cc1ccc(-c2cc(=O)[nH]c3ccccc23)cc1	-17%	-1	0%	.	-9.3%	.	.
COc1ccccc1C1CCN(Cc2ccc(Cl)cc2Cl)CC1	-67%[inhibitor]	5	4%	?	-1.4%	2%	-9
Nc1[nH]ncc1N=Nc1ccc(Cl)cc1	-1%	-3	5%	-0.3	0.1%	1%	13
COc1ccc(NC(=O)CSc2nc3ccccc3c(=O)n2CCNC(C)=O)cc1	-33%[inhibitor]	0	-4%	0.0	5.7%	3%	5
NC(=O)CCc1c[nH]c2ccccc12	?	3	5%	0.8	-30%	15%	-6
CC(=O)N1CCN(C(=O)c2cc(C)oc2C)CC1	-13%	1	10%	.	1.8%	.	.
CC(C)C[C@H](NC(=O)[C@H](Cc1ccccc1)n1c(=O)[nH]c2ccccc2c1=O)C(=O)N1CCC[C@H]1C(=O)O	.	-11	-3%	6.5	?	-11%	9
Cn1cnnc1Sc1ccc(/C=C(\CCC(=O)O)c2nc3ccccc3s2)cc1[N+](=O)[O-]	6%[15.4 µM]	-16	-22%	1.9	-21%	-14%	10
CCOC(=O)c1cccc(NC(=S)NCc2ccc(C)cc2)c1	0%	-1	-17%	5.1	0.3%	-11%	-14
COc1ccccc1NC(=O)Nc1nc(CC(=O)NC2CCCC2)cs1	-14%	3	-4%	.	0.8%	.	24
O=C(Nc1ccc(N2CCOCC2)c(Cl)c1)c1c(F)c(F)c(F)c(F)c1F	?	2	2%	-1.8	0.5%	-11%	-21
O=C(O)CCNC(=O)COc1ccc2c3c(c(=O)oc2c1)CCCC3	4%	-4	10%	1.0	3.8%	15%	2
Cc1cc(C(=O)CSc2nnc(-c3cccnc3)n2-c2ccccc2)c(C)n1CC1CCCO1 (configuration not stated)	2%	8	-11%	4.1	-0.2%	8%	-8
CC(=O)c1cc2c(cc1NC(=O)CCc1c(C)nc3ncnn3c1C)OCO2	22%	0	7%	.	-13%	.	-6
C[C@H](O)Cc1cc2ccccc2c(=O)o1	.	6	12%	.	-16%	.	.
Cn1c(SCC(=O)N2CCCC2=O)nnc1-c1ccccc1F	-10%[15.4 µM]	3	9%	2.2	.	19%	7
COc1ccccc1-c1ccc(NC2CCCC2)nn1	-21%	0	-1%	1.8	-17%	-4%	9
COc1ccc(C(=O)Oc2ccc(C(=S)N3CCCC3)cc2)cc1OC	.	.	.	3.5	.	7%	16
CCC(C)NC(=O)Cc1c(OC)ccc2cc(Br)ccc12 (configuration not stated)	?	4	0%	2.0	1.5%	21%	-1
O=C(Oc1ccc2c3c(c(=O)oc2c1)CCCC3)c1cccs1	?	1	2%	2.2	3.6%	-16%	6
COc1cccc(C2c3c(oc4ccccc4c3=O)C(=O)N2Cc2ccco2)c1 (configuration not stated)	14%	-5	-6%	.	-0.6%	.	.
O=c1oc2cc(O)ccc2cc1-c1ccc(F)cc1	0%	19	2%	7.9	14µM*	8%	-13
Cc1ccc(C2CC(=O)NC(SCC(=O)OCc3ccccc3)=C2C#N)o1 (configuration not stated)	8%	-13	-5%	4.2	1.7%	-27%	8
CNC(=O)COc1ccc(S(=O)(=O)N2CCCC2)cc1	0%[15.4 µM]	10	5%	-1.3	-9.4%	1%	-6
CCC(C)c1ccc(S(=O)(=O)N2CCN(c3ccccn3)CC2)cc1 (configuration not stated)	3%[15.4 µM]	-3	11%	-0.9	0.2%	8%	11
CCOc1cc(N2CCOCC2)c(OCC)cc1NC(=O)Cn1nc(C)c([N+](=O)[O-])c1C	1%[15.4 µM]	6	4%	.	.	.	-6
C=CCn1c(SCCCCCC)nc(O)cc1=O	-42%[inhibitor]	1	-24%	2.5	-2.2%	-7%	2
COc1ccc(-c2nsc(SCC(=O)Nc3ccc4c(c3)OCO4)n2)cc1	2%	0	2%	1.3	1.9%	-16%	-15
Cc1cccc(N2CCN(C3CCCCC3NS(=O)(=O)c3ccccc3)CC2C)c1 (configuration not stated)	-1%	.	-3%	-0.2	?	2%	-11
O=C(O)CCCN1C(=O)c2ccccc2Sc2ncccc21	-34%[inhibitor]	3	13%	-3.1	-2.5%	2%	5
CCCCN(C)C(=O)c1coc(=O)c2ccccc12	-66%[inhibitor]	3	11%	-0.7	-1.8%	12%	5
CC(C)c1nnc(SCC(=O)Nc2ccc3c(c2)OCCO3)n1C	-2%[15.4 µM]	0	-6%	.	1.3%	10%	3

# Compounds above that have bromine (2):
Molecule	gsp ag	CtBP-E1A inh	gsp antag	Menin-MLL FL inh	ClpP mod	Sfp inh	TRPV1 potentiator
CC#CCN1C=C(C(=O)OCC)C(C)N(Cc2ccc(Br)cc2)S1(=O)=O (configuration not stated)	.	0	-5%	.	-2.1%	.	.
CCC(C)NC(=O)Cc1c(OC)ccc2cc(Br)ccc12 (configuration not stated)	?	4	0%	2.0	1.5%	21%	-1

# Remaining list, next part.
Molecule	gsp ag	CtBP-E1A inh	gsp antag	Menin-MLL FL inh	ClpP mod	Sfp inh	TRPV1 potentiator
COc1cccc(OC)c1OCCCN1CCC(Cc2ccccc2)CC1	-57%[inhibitor]	-7	11%	-6.2	.	-14%	-32
CC(C)Cn1c(-c2ccco2)n[nH]c1=S	-1%	14	-1%	0.6	?	-17%	10
Cc1ccccc1OCCC(=O)Nc1cccc(S(=O)(=O)Nc2ccccc2Cl)c1	-7%	-24	?	3.7	14µM*	26%	18
O=C(Oc1ccc(/C=N/NC(=O)c2ccco2)cc1)c1ccccc1	9%	.	-6%	.	-1.7%	.	0
COC(=O)Cn1cc(/C=C/[N+](=O)[O-])c2ccccc21	19%[15.4 µM]	3	0%	2.2	.	-5%	3
CN(C)c1nc(SCc2ccccc2)nc(N2CCOCC2)n1	21%	20	-6%	6.0	-0.3%	-13%	-23
Cc1[nH]n(C(N)=S)c(=O)c1N=Nc1ccc2ccccc2c1	16%[15.4 µM]	0	-10%	5.1	.	11%	12
O=C(NNC(=O)C1CCCCC1)c1ccncc1	-11%	8	9%	-1.1	.	19%	-43
CC(=O)C1=C(O)C(=O)N(c2ccc(Br)cc2)C1c1cccc(F)c1 (configuration not stated)	?	.	-18%	0.7	-21%	13%	10
CN(c1ccccc1)S(=O)(=O)c1ccc(C(=O)NNC(=O)c2ccccc2)cc1	?	1	-9%	.	-0.8%	.	-7
CC1(C)CC(=O)C=C(NCC(=O)O)C1	4%	-13	10%	-0.5	-2.3%	6%	3
CCN(CC(=O)Nc1c(F)cccc1F)C(=O)CCSc1ccc(F)cc1	31%[15.4 µM]	-10	1%	.	.	.	27
CCCCCN(C(=O)CCC(=O)OCC(=O)c1cccc(OC)c1)c1c(N)n(CCCC)c(=O)[nH]c1=O	11%[15.4 µM]	2	-3%	.	-0.1%	20%	-1
CC1=C(C)[N+](=O)C2(O)CCCCC2(C)N1[O-] (configuration not stated)	-1%	2	5%	0.9	0.7%	8%	.
COc1ccc(CCC(=O)Nc2cc(S(=O)(=O)N3CCCCC3)ccc2N(C)C)cc1	1%	.	?	.	-0.1%	.	17
Cc1ccccc1NC(=O)Nc1cccs1	-21%	-6	1%	12	-2.8%&0.3%	22µM*	-20
Cc1cc(=O)[nH]c(SCC(=O)NC2CCCCCC2)n1	-8%[15.4 µM]	-8	2%	.	-1.8%	.	.
CCn1c(SCC(=O)Nc2cc(C)on2)nnc1-c1c[nH]c2ccccc12	-25%	-13	-3%	0.5	1.4%	-1%	2
Cc1csc(Sc2ccc([N+](=O)[O-])cc2C(=O)OCC(=O)NC2CCCC(C)C2C)n1 (configuration not stated)	1%	-5	-4%	3.6	-1.1%	12%	20
